Source: PubChem BioAssay
A488 autofl = compound fluoresces in the A488 spectral region. compound autofluorescence, A488 spectral region, dye equivalency; hits give high values. hit rate 0.1% among 59,000. max dye equivalency, M; active = above 10 nM dye equivalent; inconclusive = 1 to 10 nM; inactive = 1 nM or less; about half of its hits are not listed in these tables;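 also: highest value over a series up to 38 µM; compound alone in buffer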
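Autofluorescence read at ex 480/em 540 nm after 15 min RT in 100 mM Tris pH 8.0; compound signal normalized to A488 standard series on each plate, reported as dye-equivalent concentration at each test concentration.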
Resorufin autofl = compounds fluorescent in resorufin spectral region | Compound fluorescence, resorufin region 547/598 nm, buffer; hits give high values | max dye-equivalent concentration, M | hit rate 0.04% among 59,000 | AID 588; active = above 10 nM dye equivalent; inconclusive = 1 to 10 nM; inactive = 1 nM or less; a few of its hits are not listed in these tables; also: highest value over a series up to 38 µM
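Compounds in 100 mM Tris buffer, pH 8.0, incubated 15 min at room temperature, then read with 547 nm excitation and 598 nm emission filters. Fluorescence was converted to dye-equivalent concentration using an on-plate six-point resorufin standard curve.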
TSHR ag = agonists of human thyroid stimulating hormone receptor | HEK293-CNG-TSHR cells (CNG channel as cAMP sensor), membrane potential dye, cAMP | Potency, µM (series often up to 57.1 µM), inactives show at the top dose activation, usual class: activators | hit rate 0.48% among 73,000 | AID 926; active = well fitted activation curve of enough size with the parental cells flat; inconclusive = any curve in the parental cells; inactive = parental cells flat and receptor cells flat or falling; also: potency is read from the fitted curve at half-maximal effect; % of control where 0% means no effect; weak receptor curves with flat parental cells got no call and are not listed
Target sequence (P16473 whole entry, looked up): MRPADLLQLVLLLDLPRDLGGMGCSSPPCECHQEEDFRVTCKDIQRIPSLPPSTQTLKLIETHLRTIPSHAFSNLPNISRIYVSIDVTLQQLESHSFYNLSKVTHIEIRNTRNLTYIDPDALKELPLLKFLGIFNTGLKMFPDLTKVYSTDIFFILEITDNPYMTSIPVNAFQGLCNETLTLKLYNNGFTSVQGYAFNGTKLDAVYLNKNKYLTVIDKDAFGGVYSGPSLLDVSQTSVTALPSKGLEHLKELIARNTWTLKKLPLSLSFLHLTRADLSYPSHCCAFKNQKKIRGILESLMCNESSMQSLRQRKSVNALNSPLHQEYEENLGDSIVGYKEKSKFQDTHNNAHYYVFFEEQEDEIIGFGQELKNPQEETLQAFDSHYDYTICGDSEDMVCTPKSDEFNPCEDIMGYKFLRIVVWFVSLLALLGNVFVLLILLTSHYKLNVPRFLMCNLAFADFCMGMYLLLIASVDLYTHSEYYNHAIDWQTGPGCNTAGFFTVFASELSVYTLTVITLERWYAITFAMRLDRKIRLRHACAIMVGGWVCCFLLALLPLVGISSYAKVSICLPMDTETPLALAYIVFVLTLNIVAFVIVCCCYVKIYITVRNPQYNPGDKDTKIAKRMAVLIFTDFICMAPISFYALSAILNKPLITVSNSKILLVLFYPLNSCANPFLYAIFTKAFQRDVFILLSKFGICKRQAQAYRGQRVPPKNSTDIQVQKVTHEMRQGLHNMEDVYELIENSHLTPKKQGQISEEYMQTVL
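cAMP rise detected as CNG-channel membrane depolarization by fluorescent dye (emission 590 nm), 30 min after compound, following 60 min dye loading containing 100 uM RO 20-1724 at room temperature. Cells: TSHR/CNG HEK 293, with parental CNG HEK 293 as control.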
A647 fluor = compound autofluorescence in A647 spectral region. AID 592. 59,000 tested, under 10 active. max dye-equivalent concentration, M. Compound fluorescence, A647 channel (570/671 nm), Tris buffer; active means above 1 µM dye equivalent; inconclusive means 0.1 to 1 µM; inactive means 0.1 µM or less;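 also: values scaled relative to a standard on each plate; highest value over a series up to 38 µM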
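Compounds pinned into 100 mM Tris pH 8.0, 15 min at room temperature, then read with 570 nm excitation/671 nm emission filters. Fluorescence normalized to an on-plate six-point Alexa 647 standard curve, giving dye-equivalent concentration per compound concentration.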
AID923 = qHTS Assay for Allosteric/Competitive Inhibitors of Caspase-1: Spectroscopic Profiling in AFC Spectral Region; compound fluorescence, AFC spectral region (405/520 nm); almost no hit is shown here; Potency, µM (top dose mostly 57.5 µM), for inactives: at the top dose fluorescence increase, actives largely listed as activators; hit rate 1.1% among 75,000; AID 923, 2007; active = well fitted activation curve with a large enough effect; inconclusive = small, poorly fitted or top-dose-only effect;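 also: potency is read from the fitted curve at half-maximal effect; 0% is about no effect; scaled to a free AFC standard on each plate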
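Baseline compound fluorescence (AFC region, 405 nm ex/520 nm em) taken from the intercept of kinetic reads with 50 nM caspase-1 and 5 uM Ac-WEHD-AFC; normalized to an on-plate AFC standard curve; compounds titrated up to 57 uM.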
* hit, by the source's call; i = inactive; ? = inconclusive; / = no result given; & = joins results of further samples; [ ] = another dose, or the depositor's remark. The list is partial; count on the stated rates, not on these rows.

SMILES	A488 autofl	Resorufin autofl	TSHR ag	A647 fluor	AID923
Cc1cccc(N2C(=O)CC(Sc3nc(C)c4c(n3)CCCC4)C2=O)c1 (stereo not given)	i	i	11.9%	1e-09	-1.1%
CCCc1nc(-c2cc3ccc(C)cc3[nH]c2=O)no1	i	i	14.7%	2.24e-08	2.3%
CCN1CCN(c2nc(-c3cccnc3)nc3ccccc23)CC1	i	i	/	1.8e-09	0.2%
Cn1c(SCC(=O)NC(C)(C)C)nnc1-c1ccc(C(C)(C)C)cc1	i	i	-10.3%	1.7e-09	-0.3%
CCC(C)(C)NC(=O)C(c1cccn1C)N(Cc1ccccc1)C(=O)Cn1nnc2ccccc21 (stereo not given)	i	i	?	1.4e-09	0.3%
O=S1(=O)N=C(SCCO)c2ccccc21	i	i	-7.3%	2.7e-09	0.9%
CCC(=O)N1CCCc2cc(S(=O)(=O)N3CCC(N4CCCCC4)CC3)ccc21	i	i	11.3%	5.7e-09	-1.0%
CC(=O)C(=[N+]=[N-])C(=O)NCc1ccccc1	i	i	/	1.7e-09	/
COc1ccccc1CN1CCCC2(CCN(S(C)(=O)=O)CC2)C1	i	i	11.5%	1.92e-08	3.0%
OCCNc1ccc(Cl)cc1	i	i	0.8%	5.5e-09	1.1%
COc1ccccc1C1C(C(C)=O)=C(O)C(=O)N1CCc1ccccc1 (stereo not given)	/	/	-1.6%[11.4 µM]	/	-0.3%
O=C(CCC(=O)N1CCc2ccccc21)N1CCc2ccccc21	i	i	?	1e-09	-0.3%
Cc1csc(NC(=O)CCN2C(=O)c3ccccc3S2(=O)=O)n1	i	i	/	4.8e-09	0.1%
COC(=O)c1oc2ccc(Br)cc2c1NC(=O)CCN1CCOCC1	i	i	?	1e-09	-0.3%
CC(=O)Nc1sc(C)c(C)c1CN1CCN(S(=O)(=O)c2ccccc2)CC1	i	i	5.2%	1.71e-08	0.0%
Cn1c(=O)oc2cc(S(=O)(=O)NC3CCCc4ccccc43)ccc21 (stereo not given)	/	/	3.2%	/	1.5%
Cc1cc(C)nc(SCc2nnc(SCC(=O)N3CCCc4ccccc43)o2)n1	i	i	5.3%	7.6e-09	-0.6%
Cc1ccccc1-c1nc(CN2CCC(C(=O)NCC3CCCO3)CC2)c(C)o1 (stereo not given)	i	i	10.3%	2.39e-08	-1.7%
Fc1ccc2[nH]c3c(N4CCN(C5CCCCC5)CC4)ncnc3c2c1	i	i	6.2%	1e-09	-1.6%
COc1ccc(-c2nnc(-c3cccnc3)o2)cc1OC	/	/	3.8%	/	0.5%
CN(Cc1ccccc1)c1nnc(N)s1	/	/	-4.3%	/	-0.7%
CCOc1ccc(CCNC(=O)C2CCCN(c3nnc(-n4cccc4)s3)C2)cc1OCC (stereo not given)	i	i	11.4%	1e-09	1.3%
O=C(Nc1cccnc1)c1ccc2c(c1)C(=O)N(Cc1cccnc1)C2=O	i	i	-8.4%	1.94e-08	-0.2%
Cc1ccc(C2CC(C(F)(F)F)n3nc(C(=O)NCc4ccco4)cc3N2)cc1 (stereo not given)	i	i	2.1%	3.51e-08	0.5%
Cc1c(C(=O)O)oc2c1C(O)CCC2 (stereo not given)	i	i	-2.4%	1.5e-09	-1.9%
CCN(CC)C(=O)CSc1nnc([C@@H](N)Cc2ccccc2)o1	i	i	-2.3%	2.2e-08	1.4%
CC(C)C(=O)Nc1ccc(-c2nc3cccnc3o2)cc1	/	/	-8.1%	/	-1.3%
Nn1c(SC/C=C/c2ccccc2)nnc1-c1ccncc1	i	i	5.3%	2e-09	-1.1%
COCc1cc(=O)[nH]c(Nc2nc3ccc(C)cc3o2)n1	i	i	/	7.89e-08	/
COc1nc(Nc2ccc3c(c2)OCO3)nc(OC)n1	/	/	-3.1%	/	1.9%
c1ccc2nc(C3=NCCN3)cnc2c1	/	/	5.2%	/	-1.0%
COc1ccccc1-c1cncnc1NCc1cccc(C)c1	i	i	?	1e-09	-3.0%
N#C/C(=C\NC(=S)c1ccncc1)c1nc2ccccc2s1	i	i	1.7%[11.4 µM]	1e-09	4.9%[11.5 µM]
Cc1ccc(SC(C)c2nc(-c3ccncc3)no2)cc1 (stereo not given)	i	i	/	1.05e-08	2.3%
COC(=O)C1C(O)=C(C=NC2CCCCC2)C(=O)CC1(C)C (stereo not given)	i	i	5.4%	1e-09	0.9%
O=c1cc(-c2ccc(O)cc2)oc2cc(O)cc(O)c12	i	i	-9.8%	6.2e-09&9.7e-09	0.0%
Cc1cc(NC(=O)CSc2nc3ccsc3c(=O)n2NC(=O)c2ccccc2)no1	i	i	-0.4%	3.54e-08	0.2%
CC1CCCCN1S(=O)(=O)c1ccc2c(c1)CCN2C(=O)C1CCC1 (stereo not given)	i	i	18.6%	2.24e-08	-0.3%
O=C(NCCc1ccccc1)C1CCN(S(=O)(=O)N2CCC3(CC2)OCCO3)CC1	i	i	0.1%	1e-09	0.8%
O=C1CSC(c2ccccn2)N1Cc1cn2ccccc2n1 (stereo not given)	i	i	-1.3%	9.1e-09	3.5%
O=C(Cn1c(=O)oc2cc(S(=O)(=O)N3CCCCCC3)ccc21)NC1CCCCCCC1	/	/	5.4%	/	4.8%
CC(C)(C)C(=O)CSc1nccc(=O)[nH]1	i	i	10.3%	4.4e-09	-0.4%
CCC(=O)N1CCc2cc(S(=O)(=O)CCC(=O)O)ccc21	i	i	-1.0%	8.1e-09	0.5%
O=C(CCc1ccccc1)n1nc(-c2ccccc2)nc1NCc1ccco1	i	i	29.3%	5.6e-09	-1.8%
CC1CCCCN1CCNC(=O)C1CCN(S(=O)(=O)N2CCCCC2)CC1 (stereo not given)	i	i	2.7%	1e-09	-1.1%
CCOc1ccc(OCC(=O)N2CCOCC2)cc1	i	i	-0.8%	1.06e-08	0.1%
Cc1ccnc(SCCn2c(N3CC(C)CC(C)C3)nc3c2c(=O)n(C)c(=O)n3C)n1 (stereo not given)	i	i	11.8%	3.73e-08	-0.6%
COc1ccc(Cc2nnc(NC(=O)c3c(-c4ccccc4)noc3C)s2)cc1	/	/	11.7%	/	0.9%
CCCCC(c1nnnn1Cc1ccco1)N1CCN(C(=O)c2ccco2)CC1 (stereo not given)	i	i	?	1.62e-08	0.2%
CCC(CC)c1nc(NCCC(=O)O)c2ccccc2n1	i	i	?	2.76e-08	1.2%
COc1ccc(CCN2C(=NC(=O)CCC(=O)O)SC3CS(=O)(=O)CC32)cc1OC (stereo not given)	i	i	4.2%	1e-09	-0.3%
Cc1ccc(NCc2nnc(SCC(=O)c3ccccc3)o2)c(C)c1	i	i	-9.5%	5.28e-08	-1.2%
COc1ccccc1N1CCN(c2cc(=O)n(-c3ccccc3Cl)c(=O)[nH]2)CC1	i	i	/	4.7e-09	-0.1%
Cc1cccc(N(C)S(=O)(=O)c2ccc3c(c2)CCC(=O)N3)c1	i	i	-0.4%	1.8e-09	1.7%
COc1ccc(-n2ncc3c(N4CCC(C(N)=O)CC4)ncnc32)cc1	i	i	/	1.34e-08	/
O=C(CNCC1CCCO1)Nc1ccc(N2CCCCCC2)cc1 (stereo not given)	i	i	-19.7%	3.8e-08	2.1%
O=C(CCS(=O)(=O)Cc1ccccc1F)NCCCN1CCCCC1	i	i	3.2%	1.6e-09	1.7%
CC(=O)c1ccccc1NS(=O)(=O)c1c(C)nn(-c2ccccc2)c1C	i	i	21.2%	1.53e-08	-1.3%
CC(C)OC(=O)CCC1(C(=O)O)CCC(=O)NC1 (stereo not given)	i	i	12.0%	1e-09	1.6%
Cn1c(=O)c2c(nc(N3CCCCC3)n2CCNC2=NCCC2)n(C)c1=O	i	i	10.2%	9.3e-09	2.7%
(continued)
SMILES	A488 autofl	Resorufin autofl	TSHR ag	A647 fluor	AID923
CCOC(=O)CNC(=O)CSc1nc(N)cc(N)n1	i	i	5.0%	2.98e-08	0.6%
Cc1[nH]c2ccccc2c1C(=O)CN1CCCC1	i	i	12.9%	8.4e-09	5.4%
C=C(C)COc1ccc2c(c1)CCC1C2CC[C@]2(C)C(=O)/C(=N/O)CC12 (stereo not given in full)	i	i	-1.8%[11.4 µM]	1e-09	-1.8%[11.5 µM]
COC(=O)c1cc2sccc2n1Cc1ccc(C)cc1	i	i	?	2.8e-09	-0.2%
CC1(C)CC(=O)C(C=NCCN2CCOCC2)=C(O)C1	/	/	7.9%	/	3.6%
CC1=CCC(Cc2nc3ccccc3o2)C1(C)C (stereo not given)	i	i	-3.9%	1.42e-08	-0.4%
Cc1ccc(-n2nc(C)c(C3C(C#N)=C(N)OC4=C3C(=O)CC(C)(C)C4)c2Cl)cc1 (stereo not given)	i	i	?	1.72e-08	-2.5%
Cc1cccc(NC(=O)C2CCN(c3nccc(C)n3)CC2)c1	i	i	-2.2%	1e-09	1.7%
N[C@H](C(=O)O)c1ccc(C(=O)O)c(O)c1	/	/	8.3%	/	-1.9%
CC(C)OC(=O)CSc1nnc(-c2ccc(Cl)cc2Cl)n1N	i	i	12.8%	9.5e-09	0.3%
COCCNc1oc(COc2cccc(C)c2)nc1C#N	i	i	/	3.21e-08	-0.3%
CN1CCc2c(c3ccccc3n2Cc2ccccc2)C1	i	i	-6.7%[25.6 µM]	7e-09	-3.3%

Entries of single compounds, looked up by structure. Order of screens: A488 autofl	Resorufin autofl	TSHR ag	A647 fluor	AID923
CCN(CC)C(=O)CSc1nnc([C@@H](N)Cc2ccccc2)o1 across the screens: i	i	-2.3%	2.2e-08	1.4%
Cc1ccc(C2CC(C(F)(F)F)n3nc(C(=O)NCc4ccco4)cc3N2)cc1 (stereo not given) across the screens: i	i	2.1%	3.51e-08	0.5%
COc1ccccc1-c1cncnc1NCc1cccc(C)c1 across the screens: i	i	?	1e-09	-3.0%
Cc1c(C(=O)O)oc2c1C(O)CCC2 (stereo not given) across the screens: i	i	-2.4%	1.5e-09	-1.9%
O=C(CCC(=O)N1CCc2ccccc21)N1CCc2ccccc21 across the screens: i	i	?	1e-09	-0.3%

(more compounds)
SMILES	A488 autofl	Resorufin autofl	TSHR ag	A647 fluor	AID923
CCCCCC[C@@H]([C@@H](C)O)n1cnc2c(N)ncnc21	/	/	13.6%	/	1.2%
CCCC(=O)Nc1ccc(NC(=O)Cc2ccccc2)cn1	i	i	-1.6%	3.3e-09	1.7%
Cc1noc(C)c1-c1nc(Nc2ccccc2)c2ccccc2n1	i	i	11.7%	1e-09	0.6%
Fc1cccc(NCc2ccoc2)c1	/	/	1.6%[11.4 µM]	/	0.4%
O=C(c1ccc(Cn2cc(Cl)cn2)cc1)N1CCN(c2ccccc2)CC1	i	i	2.0%	1.49e-08	-1.6%
O=C(NCc1ccco1)Nc1ccc2nsnc2c1	/	/	-5.0%	/	18.3%
Cn1c(CN2CCCCC2)nc2cc(NC(=O)c3ccccc3)ccc21	i	i	13.3%	3.56e-08	2.6%
CCCS(=O)(=O)N1CCC(C(=O)N2CCCC2)CC1	i	i	-1.8%	1e-09	1.2%
Nc1ccc(-c2cc(N)n(-c3ccccc3)n2)cc1	i	i	?	3.2e-09	3.1%
CCOC(=O)c1cc2sccc2n1CCCN1C(=O)c2ccccc2C1=O	i	i	?	1e-09	2.9%
Cc1nnc(NC(=O)C(C)Oc2ccc3c(C)cc(=O)oc3c2)s1 (stereo not given)	i	i	1.4%	1e-09	2.1%
CC(C)CCn1nnnc1C(c1ccccc1)N1CCC(C(N)=O)CC1 (stereo not given)	i	i	6.9%	2.6e-09	0.5%
O=C(O)c1ccc(NS(=O)(=O)/C=C/c2ccccc2)cc1	i	i	0.9%	1e-09	1.1%
